rRNA inh HTS – reduced GFP signal of wild-type E. coli, primary screen, bacterial rRNA inhibitor project, GFP/RFP fluorescence, OD600, single point | E. coli WT GFP vs humanized-ribosome RFP mutants, 24 h; active compounds read low; DMSO median 0, no signal -100 | GFP signal change (wild-type ribosome), % (test concentration not listed) | 1.6% of 350,000 active;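 active = significant combined selectivity score with lowered wild-type GFP, culture density cut under 30%, mutant RFP and density less affected; inactive = any of these conditions unmet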; also: one replicate is shown; some compounds called inactive have numbers as strong as hits
A1 inh – caspase 3/7 activation in MEF A1-2A-BIM cells, primary screen, A1 inhibitor project, cell-based, luminescence, HTS; caspase activation, % (concentration not given with the values); Caspase-Glo 3/7 luminescence, 3 h; percent of clofoctol response, vehicle zero; 0.066% of 330,000 active;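 active = over half of replicate activation scores above 10%, or exactly half above 10 with the replicate mean above 10; inconclusive = replicate mean below 10 yet half the replicates above 10; inactive = over half of replicates below 10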;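 also: wells of about 30 µL received 50 nL stock; many hits fall short of the cut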
MLL AF4-AF9 inh – inhibitors of AF4 peptide binding to AF9, primary screen, biochemical, AlphaScreen, biotin-AF4 peptide, FLAG-AF9, single point | Protein AF-9 (Homo sapiens), P42568 | inhibition, % at 10 µM | 0.47% of 350,000 active | AID 651704, 2012;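 active = every replicate reaching a set inhibition limit, whatever the replicate mean, cut at about 25% in these data; inconclusive = mean inhibition reaches that limit but some replicates miss it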;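 also: 0% = plate neutral control median and 100% = total signal loss; the record names both 10 and 1 µM as test concentration; the first replicate is given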
Target sequence (P42568 whole entry, looked up): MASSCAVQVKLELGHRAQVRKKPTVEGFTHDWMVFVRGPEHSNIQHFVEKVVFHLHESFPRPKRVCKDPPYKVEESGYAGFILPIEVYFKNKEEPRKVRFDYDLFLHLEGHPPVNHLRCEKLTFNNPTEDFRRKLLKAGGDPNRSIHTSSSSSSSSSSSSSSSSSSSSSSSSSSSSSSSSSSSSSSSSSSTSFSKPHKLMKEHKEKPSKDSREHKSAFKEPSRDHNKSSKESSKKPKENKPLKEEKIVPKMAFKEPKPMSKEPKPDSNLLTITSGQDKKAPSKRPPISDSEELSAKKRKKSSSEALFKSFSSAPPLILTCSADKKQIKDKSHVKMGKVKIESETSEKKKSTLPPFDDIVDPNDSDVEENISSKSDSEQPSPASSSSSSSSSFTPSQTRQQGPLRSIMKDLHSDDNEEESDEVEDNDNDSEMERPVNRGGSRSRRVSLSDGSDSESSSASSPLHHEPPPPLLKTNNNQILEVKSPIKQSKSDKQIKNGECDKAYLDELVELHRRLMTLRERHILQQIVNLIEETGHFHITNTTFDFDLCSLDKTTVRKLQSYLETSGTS
Beta apoptosis – inhibitors of cytokine-induced beta cell apoptosis, primary screen, luminescence | 0.8% of 300,000 active | protection from apoptosis, % (no concentration beside the values) | AID 435005, 2010 | INS-1E cytokine-induced death, ATP luminescence, 48 h; percent of positive-control rescue, neutral wells zero;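 active = all replicates at 75% or more, or half of them and the mean; inconclusive = half reach 75% but not the mean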;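 also: 0% = cytokine-treated negative control wells and 100% = positive control rescue; higher means more ATP so stronger rescue from cytokine killing; wells of about 40 µL received 100 nL stock; the first replicate is given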
T cruzi repl – inhibitors of intracellular T. cruzi growth, primary screen, luminescence, NIH3T3 host cells. T. cruzi beta-gal in NIH3T3, 90 h. inhibition, % (test concentration not listed). 1.4% of 300,000 active;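 active = mean inhibition across valid replicates above about 55%, limit read from the data; inconclusive = mean below that limit but half or more replicates reach it; inactive = mean below it, under half of replicates reach it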;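 also: signal also drops with host cell toxicity which is not excluded here; 0% = plate median of DMSO wells and 100% = zero luminescence signal; higher percent means less beta-gal luminescence so fewer parasites; stock transfer was 50 nL into about 50 µL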
Vif TR-FRET – inhibitors of Vif binding to APOBEC3G peptide, primary screen, biochemical, TR-FRET, GST-Vif 1-94, biotin-A3G peptide, dose response retest (AID 1117319). TR-FRET GST-Vif / biotin-A3G peptide binding; higher % means a stronger effect; test concentration not given here; strong numbers were not always called active. inhibition, %; hits with a dose series show IC50 in µM. 0.57% of 260,000 active;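 active = above the screen mean plus three standard deviations and confirmed in dose response; inconclusive = results disagree or hit not tested in dose response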;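 also: Vif residues 1-94 fused to GST binding biotinylated APOBEC3G peptide 110-148; 0% = full assay without inhibitor and 100% = GST in place of GST-Vif; retest series ran down from 100 µM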
Calb FLC – C. albicans growth inhibition with fluconazole, primary screen, CaCi-2 strain, Alamar Blue fluorescence | C. albicans CaCi-2 (fluconazole-resistant clinical isolate) + fluconazole, 48 h | growth inhibition, % (concentration not given with the values) | 0.57% of 300,000 active | AID 1979, 2009;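 active = most replicates above 75%; inconclusive = exactly half above 75%; inactive = most below 75%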;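 also: all wells also contain fluconazole at 8 µg/ml as a sub-toxic cotreatment; 0% = median of DMSO wells and 100% = median of geldanamycin control wells; wells of about 8 µL received 7.5 nL stock; the first replicate is given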
RanGTP-Imp inh – inhibitors of RanGTP-importin-beta interaction, primary screen, biochemical, FRET, CFP-Ran, YFP-importin-beta, homogeneous; Ran GTPase (GTP-bound) - importin-beta complex; 1.1% of 300,000 active; cell-free CFP-Ran/YFP-importin-beta FRET ratio; inhibition, % (no concentration beside the values);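 active = most replicates above 15%; inconclusive = exactly half above 15%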;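 also: 0% = DMSO wells and 100% = Ran loaded with GDP instead of GTP; wells of about 40 µL received 100 nL stock; the first replicate is given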
rRNA inh HTS OD600 – also measured in rRNA inh HTS; calls as there; OD600 change, %; measured here: OD600 growth;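 optical density of the mix in the first replicate; 0 = DMSO median and -100 = no signal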
rRNA inh HTS RFP – second read-out of rRNA inh HTS, no call of its own (marks repeat the call); RFP signal change, %; measured here: RFP humanized mutant strains;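 first replicate; 0 = DMSO median and -100 = no signal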
* marks the source's active call; other numbers are inactive results; ? = inconclusive; · = no result given.

SMILES	rRNA inh HTS	rRNA inh HTS OD600	rRNA inh HTS RFP	A1 inh	MLL AF4-AF9 inh	Beta apoptosis	T cruzi repl	Vif TR-FRET	Calb FLC	RanGTP-Imp inh
O=C(CC1C(=O)NCCN1Cc1cccc(Oc2ccccc2)c1)NCCCn1cccn1 (stereo unspecified)	0	-5	1.9	-0.4	0.9	-1	5	6%	-8	2.4
O=C(N/N=C/c1ccc(-c2ccc(S(=O)(=O)Nc3ncccn3)cc2)o1)c1cc2ccccc2cc1O	·	·	·	-0.2	·	0	-14	?	22	-6.9
COc1ccc(C)cc1S(=O)(=O)N(CC(=O)NCc1ccco1)c1ccc(C)cc1	-15	-30	10	0.0	5.0	8	6	·	2	2.7
CCN(CC)C(=O)COc1ccc(/C=C(\C#N)S(=O)(=O)c2ccccc2)cc1OC	24	17	-0.5	-0.4	-0.7	-2	-5	-2%	-7	-1.8
CC1=NN(c2ccccc2)C(=O)/C1=C/c1cc2cc(C)ccc2nc1N1CCCCC1	·	·	·	0.0	·	·	-4	-1%	-2	4.4
CC1(C)CC(=O)C(CC2=C(O)CC(C)(C)CC2=O)C(=O)C1	·	·	·	1.3	·	-4	-9	·	-1	5.6
CN(C(=O)Nc1ccc(Cl)c(Cl)c1)c1ccccc1C(=O)O	·	·	·	-0.1	·	4	-11	0%	-41	-1.9
COc1ccc2[nH]c(C(=O)Nc3ncc(C)cc3Br)cc2c1	-3	-12	-2.7	0.6	0.7	5	-22	-129%	3	2.5
CCOC(=O)NC1(C(F)(F)F)NC(=O)N(c2ccc(F)cc2)C1=O (stereo unspecified)	10	11	12	-0.1	2.1	-5	-25	·	4	7.9
CCOC(=O)/C=C/C(=O)Nc1cccc([N+](=O)[O-])c1	·	·	·	-0.2	·	-4	35	29%	-10	2.2
O=S(=O)(c1ccc(N2CCCC2c2nc3ccccc3s2)nc1)N1CCOCC1 (stereo unspecified)	·	·	·	-0.1	·	7	17	9%	18	0.2
O=C(Cc1ccccc1)NCC(=O)N1CCN(Cc2cccc(Cl)c2)CC1	7	-3	0.6	-1.7	0.5	-3	·	·	·	·
COc1ccc(C2/C=C\CN(Cc3ccc(N(C)C)cc3)CC(=O)N2Cc2ccc(F)cc2)cc1 (stereo unspecified)	-7	4	-13	-1.3	7.9	-19	-1	·	-1	-0.5
Cc1ccc(-c2nc(=O)[nH]c3ccccc23)cc1	3	3	1.2	-0.1	6.0	0	-12	1%	·	3.3
Cc1ccccc1OCC(=O)N1CCCCCCC1	1	4	0.2	?	1.3	-7	0	·	4	2.0
O=C(Nc1ccc(F)cc1)C1CCCO1 (stereo unspecified)	4	-5	0.4	0.9	-3.3	-5	-5	1%	-20	-3.1
CCCSc1nsc(N)n1	1	-3	-7.1	0.1	-2.3	-5	8	4%	-18	0.8
Cc1ccc(NC(=O)OCCN2CCN(Cc3ccccc3)CCC2=O)cc1	2	5	-7.0	0.6	1.9	10	-10	·	-4	-0.7
NC(=O)C1CCN(C(=O)CN(c2cccc(Cl)c2)S(=O)(=O)c2ccccc2)CC1	6	5	-0.3	0.4	1.9	·	-13	0%	-9	3.3
COc1cc(NC2c3ccccc3C(=O)N2Cc2ccccc2Cl)cc(OC)c1OC (stereo unspecified)	8	2	1.4	0.2	-5.5	-6	8	·	-10	-0.3
CCNC(=S)N/N=C(\C)c1ccc2ccccc2c1OC(F)F	-45	-58	-7.9	0.9	11	3	4	-5%	43	-1.3
COc1cc(/C=C/C(=O)OCC(=O)NC(=O)C2COc3ccccc3O2)ccc1OC(F)F (stereo unspecified)	8	11	-1.1	0.3	-6.5	0	·	0%	·	·
C=CCOC(=O)C(=O)/C=C/c1c(C)n(C)n(-c2ccccc2)c1=O	0	-13	0.3	?	-1.4	-5	-26	8%	-3	-0.8
CC(C)(C)c1ccc(S(=O)(=O)Nc2cccnc2)cc1	·	·	·	1.0	·	9	-20	-2%	-21	-1.5
COc1cccc(C(=O)Nc2ccc3c(cc2=O)[C@@H](NC(C)=O)CCc2cc(OC)c(OC)c(OC)c2-3)c1	·	·	·	0.0	·	25	22	-5%	9	0.4
Next section.
SMILES	rRNA inh HTS	rRNA inh HTS OD600	rRNA inh HTS RFP	A1 inh	MLL AF4-AF9 inh	Beta apoptosis	T cruzi repl	Vif TR-FRET	Calb FLC	RanGTP-Imp inh
CCOc1ccc(N2C(=O)CC(N(CCc3ccc(S(N)(=O)=O)cc3)C(C)=O)C2=O)cc1 (stereo unspecified)	8	9	-1.8	-0.3	-23	-1	7	·	8	2.3
Cc1cc(C)c2[nH]c(=S)cc(C)c2c1	·	·	·	-0.9	·	0	-19	-11%	10	-2.6
CC(=O)Nc1ccc(NC(=O)C(C)OC(=O)CNS(=O)(=O)c2cccc(Cl)c2)cc1 (stereo unspecified)	10	12	-0.8	1.1	-0.1	-2	-8	·	1	1.1
COc1ccccc1N1CCN(/N=C/C=C/c2ccccc2[N+](=O)[O-])CC1	-17*	-0.2*	5.4*	-0.1	48*	4	19	-2%	-3	1.2
Cc1c(C(=O)OCC(=O)N(C)CC(=O)Nc2ccc(F)cc2)oc2ccccc12	-3	-7	2.2	0.5	-2.2	-3	·	-5%	·	·
CN1CCN(CCP(=O)(c2ccccc2)c2ccccc2)CC1	·	·	·	0.4	·	-2	1	-2%	6	-1.6
CC(=O)c1cc(-c2ccccc2)n(CC(=O)NC2CCCC2)c1C	·	·	·	-0.1	·	1	3	-24%	-7	-3.7
O=C(COC(=O)CSc1cc(Cl)ccc1Cl)NCc1ccc2c(c1)OCO2	-9	-2	0.8	-0.8	-4.4	7	3	·	-26	-5.1
COc1cccc(N=C2SC(C(=O)Nc3ccc(F)cc3)CC(=O)N2C)c1 (stereo unspecified)	·	·	·	-0.8	·	·	-3	-5%	0	-2.7
Cc1oc(-c2cccc(Cl)c2)nc1CS(=O)(=O)CC(=O)NC1CC1	1	3	0.9	-0.6	-0.5	5	-1	·	2	0.2
O=C(NNc1ccc([N+](=O)[O-])cc1)C1CC2CCCC(C1)C2=O (stereo unspecified)	·	·	·	0.5	·	0	-10	22%	-3	2.4
COCCOC(=O)c1c(C)oc2ccc(OC(=O)c3cccs3)cc12	·	·	·	0.0	·	-1	-7	3%	1	3.8
CCN(C(=O)CN1CCN(C)CC1)c1c(N)n(Cc2ccccc2)c(=O)[nH]c1=O	-2	-1	-0.1	0.3	4.4	-4	·	-5%	·	·
CC(=O)c1nn(-c2cccc(Br)c2)cc1C(=O)c1ccccc1	·	·	·	0.1	·	-1	14	-8%	4	13
COc1cccc(/C=N/NC(=O)c2cc3c(OC)c(OC)ccc3[nH]2)c1OC	-17	-6	2.4	·	9.2	·	-23	8%	-13	·
CCN(Cc1ccc2c(c1)OCO2)C(=O)/C=C/c1cccc(Br)c1	-13	-40	-1.7	-0.4	1.5	-7	34	·	-1	-3.7
C=C(C)C(=O)N1CC2(CC(c3cccc(NC(=O)c4ccccc4)c3)=NO2)C[C@@H]1C(N)=O (stereo partly specified)	6	25	2.1	-1.6	6.3	-2	-22	9%	9	-1.6
COC(=O)Nc1ccc(S(=O)(=O)N(CCO)CC(F)(F)C(F)F)cc1	·	·	·	0.8	·	-6	0	22%	-4	0.6
COc1ccccc1N1CCN(S(=O)(=O)c2cc(C(F)(F)F)cc(C(F)(F)F)c2)CC1	-2	8	-2.0	-0.2	-3.8	1	22	-1%	2	3.7
CC(=C/c1ccccc1)/C=N/N1CCN(Cc2ccc(C)cc2)CC1	-25*	2.6*	0.3*	-0.8	2.5	·	1	11%	19	3.4
Cc1cc(O)c(NC(=O)c2ccc(Br)o2)cc1C	·	·	·	-3.6	·	-2	-7	?	-8	-1.6
C[C@H](NC(=O)c1nc[nH]c1C(=O)NCC(=O)OC(C)(C)C)C(=O)OCc1ccccc1	-10	-16	1.1	0.6	5.1	-13	?	·	-4	0.4
CCOc1ccc(Oc2c(C)oc3cc(O)ccc3c2=O)cc1	-32	-50	-8.7	-0.2	-0.1	-7	-7	15%	70	1.6
CC(C)(SC(=S)N1CCOCC1)C(=O)O	·	·	·	0.3	·	-4	-11	0%	-18	-3.1
COC(=O)C1=C(C)N(C)C(=O)/C1=C\c1cccs1	·	·	·	0.2	·	1	-3	1%	9	4.1
New compounds follow.
SMILES	rRNA inh HTS	rRNA inh HTS OD600	rRNA inh HTS RFP	A1 inh	MLL AF4-AF9 inh	Beta apoptosis	T cruzi repl	Vif TR-FRET	Calb FLC	RanGTP-Imp inh
C=CCN1C(=O)CS/C1=N/c1nccs1	6	3	7.9	0.2	-13	-1	18	26%	?	2.3
CSc1ccc(/C=N/n2c(C)cc(C)cc2=O)cc1	·	·	·	-3.2	·	-5	3	-2%	-6	0.9
CCOc1ccc(-n2c(-c3ccc(Br)cc3)c[n+]3c2CCCCC3)cc1	-58	-77	-24	0.3	2.5	118*	83*	·	103*	2.3
Cc1cccc(OCC(=O)NNC(=O)CSc2ncc(C#N)c(N)n2)c1	·	·	·	-0.2	·	-4	-10	-38%	14	3.4
COc1ccc(CN2CCN(Cc3ccc(CO)o3)CC2CCO)cc1C (stereo unspecified)	12	16	1.7	1.6	-29	-7	-11	·	10	0.9
CSc1nsc2nc(=O)c(/C=C3\C(C)=Nc4ccccc43)c(N)n12	-34	-25	28	·	·	·	-9	?	14	7.8
COC(=O)CSc1cc(C)nc2ccc(OC)cc12	·	·	·	-0.8	·	-4	-10	11%	·	-2.4
CCC(C)NC(=O)Cn1c(COc2ccc(Cl)cc2Cl)nc2ccccc21 (stereo unspecified)	·	·	·	-0.3	·	3	13	·	3	-4.9
Cc1cc(C)c2cc(CN(Cc3ccco3)C(=O)NCc3ccccc3)c(=O)[nH]c2c1	·	·	·	-1.5	·	-6	2	8%	5	-1.1
Cc1nc(C)c(C(=O)OCC(=O)N2CCN(c3ccccc3)CC2)s1	·	·	·	0.0	·	-8	-3	8%	-4	2.2
CCC1=NN2C(=N)/C(=C/c3cc(C)n(Cc4ccccc4)c3C)C(=O)N=C2S1	-28	-38	12	-0.1	-1.3	-1	-9	-15%	-4	0.1
CCOC(=O)N1CCN(C(=O)c2ccccc2NC(=O)COc2ccccc2)CC1	7	11	-1.3	-0.9	-0.2	-5	1	·	3	-0.3
S=c1nc[nH]c2c1ncn2C1CCCO1 (stereo unspecified)	8	10	1.3	-0.9	0.4	0	29	-9%	-4	1.8
O=C(Nc1ccccn1)c1ccc(C(=O)Nc2ccccn2)cc1	·	·	·	-2.0	·	-2	14	·	20	2.4
O=C(O)COc1ccc(NC(=O)c2ccc3c(c2)C(=O)N(Cc2ccccc2)C3=O)cc1	1	13	1.3	-0.3	-0.9	-4	-4	·	3	6.8

Source: PubChem BioAssay

Some of the compounds tested; rates above refer to the full screens.
